Screening results as filed in PubChem BioAssay.
VDR inhibitor = inhibitors of human vitamin D receptor | 0.93% of 400,000 active | AID 504847 | P11473 | VDR-SRC2-3 peptide fluorescence polarization, 2 h | Potency, µM, inactives show max response, negative = inhibition, actives largely listed as inhibitors; active = well fitted inhibition curve with a large enough effect; inconclusive = small, poorly fitted or top-dose-only effect, or another doubt; inactive = no such curve, though single readings can be large or run the other way; note: series mostly up to about 120 µM
Target sequence (P11473 whole entry, looked up): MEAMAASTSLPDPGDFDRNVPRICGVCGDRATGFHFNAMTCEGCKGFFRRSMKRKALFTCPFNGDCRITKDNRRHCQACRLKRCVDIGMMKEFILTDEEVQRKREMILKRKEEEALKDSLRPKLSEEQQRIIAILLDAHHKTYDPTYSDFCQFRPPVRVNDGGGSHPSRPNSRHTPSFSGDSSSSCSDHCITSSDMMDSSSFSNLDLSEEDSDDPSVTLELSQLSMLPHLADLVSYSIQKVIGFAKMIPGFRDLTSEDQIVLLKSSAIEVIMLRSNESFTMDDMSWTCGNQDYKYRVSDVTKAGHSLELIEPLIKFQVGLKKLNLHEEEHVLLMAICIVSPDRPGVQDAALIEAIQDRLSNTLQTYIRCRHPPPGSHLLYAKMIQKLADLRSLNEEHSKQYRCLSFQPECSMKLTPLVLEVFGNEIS
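FP read-out; VDR + SRC2-3 coactivator peptide; 23 nl compound by pintool; 2 h RT incubation; reagents held at 4 deg C, protected from light.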
An asterisk follows results filed as active; & = joins results of further samples; ! = not active in a repeat; [ ] = dose if it differs, or a comment. % is set by controls: 0 for no effect and ±100 for the full control effect; potency is the fitted concentration of half-maximal effect. The list is partial. The share of hits here may be higher or lower than overall.

What do the screens show for `C=CCOC(=O)c1sc(NC(=O)c2ccco2)nc1C`?
VDR inhibitor: -5%

Results for CN(C)C(=O)c1ccc(-c2ccc3ncnc(NCCN4CCOCC4)c3c2)cc1 ?
VDR inhibitor: 5%

Results for O=C(N/N=C/C=C/c1ccco1)c1cccc([N+](=O)[O-])c1 ?
VDR inhibitor: -2%

How did Cc1ccc(NC(=O)Cn2c(-c3ccc4c(c3)OCO4)cn(-c3ccccc3)c2=O)cc1 do in these assays?
VDR inhibitor: 2%

How did O=C(CSc1ccc(F)cc1)Nc1nnc(-c2ccco2)o1 do in these assays?
VDR inhibitor: 23%

How did O=C(CCC1COc2ccccc2O1)N1CCCC1 (configuration not stated) do in these assays?
VDR inhibitor: -4%

Results for O=C(Nc1ccc(S(=O)(=O)Nc2nccs2)cc1)c1nn(-c2ccc(F)cc2)ccc1=O ?
VDR inhibitor: -19%

How did Cc1cc(Cl)n2nc(C)c(-c3ccc(Cl)cc3)c2n1 do in these assays?
VDR inhibitor: -7%

Results for COc1ccccc1N(CC(=O)NCCC1=CCCCC1)S(=O)(=O)c1ccccc1 ?
VDR inhibitor: 6%

What do the screens show for `CSc1ccc(S(=O)(=O)Nc2ccc(NC(C)=O)cc2)cc1`?
VDR inhibitor: 4%

What do the screens show for `CCOc1ccc(CCNC(=O)c2cc3c(=O)[nH]c4ccc(C)cc4c3s2)cc1OCC`?
VDR inhibitor: -19%

How did COc1cccc(N2CCN(C(=O)C3CCN(S(=O)(=O)c4cccc5nonc45)CC3)CC2)c1 do in these assays?
VDR inhibitor: 16%

What do the screens show for `CCC(=O)c1ccc(OCC(=O)OCC(=O)N(CCC#N)c2ccc3c(c2)OCCO3)cc1`?
VDR inhibitor: 1%

What do the screens show for `O=C(c1ccc2c(c1)OCO2)N1CCC2(CC1)Oc1ccc(Cl)cc1C(=O)C21CC(c2ccccc2)=NO1` (configuration not stated)?
VDR inhibitor: 0%

What do the screens show for `CCc1c(O)c(/C(C)=N\O)c(=O)n(-c2ccccc2)c1-c1ccccc1`?
VDR inhibitor: -7%

How did Oc1ccc(-n2cccc2/C=N/n2cnnc2)cc1 do in these assays?
VDR inhibitor: 20%

How did Cc1cc(NC(=O)Nc2nnc(N3CCCCCC3)s2)ccc1Br do in these assays?
VDR inhibitor: 7%

What do the screens show for `O=C(Nc1ccc2c(c1)OCCO2)C1CCN(C(=O)c2ccc([N+](=O)[O-])cc2)CC1`?
VDR inhibitor: -16%

How did CCCC(=O)Nc1ccc(N2CCN(C(=O)c3cc4ccccc4o3)CC2)cc1 do in these assays?
VDR inhibitor: 20%

How did CC(C)C(=O)NC(=O)COC(=O)/C=C/c1cccs1 do in these assays?
VDR inhibitor: 13%

What do the screens show for `O=C(CSc1ccc(Cl)cc1)Nc1cccc(-c2nnc(-c3ccco3)o2)c1`?
VDR inhibitor: 5%

What do the screens show for `CNC(=O)c1ccsc1NC(=O)CN1C(=O)CCC1=O`?
VDR inhibitor: -6%

How did CCOC(=O)Cc1nn(C)c(=O)c2ccccc12 do in these assays?
VDR inhibitor: 5%

What do the screens show for `COc1cccc(C(=O)NCC(=O)NCc2cc(=O)n(C)c(=O)n2C)c1`?
VDR inhibitor: 4%

Results for COc1ccc(CCNC(=O)CNC(=O)Cn2ccc3ccccc3c2=O)cc1OC ?
VDR inhibitor: 3%

Results for Cc1cccc(/C=C(\C(=O)C(=O)O)c2ccc3ccccc3n2)c1 ?
VDR inhibitor: -13%

What do the screens show for `COc1cc(C(=O)NCCc2ccccc2)ccc1OCC(=O)N1CCOCC1`?
VDR inhibitor: -1%

What do the screens show for `c1ccc(N2CCOCCOCCOCCOCC2)cc1`?
VDR inhibitor: -10%

What do the screens show for `CCCn1c(=O)c2ccccc2n2c(SCc3nc4ccccc4s3)nnc12`?
VDR inhibitor: 4%

What do the screens show for `O=C(O)c1cccc(Nc2nc3ccccc3nc2NS(=O)(=O)c2cccs2)c1`?
VDR inhibitor: -18%

What do the screens show for `CC(=O)N[C@H]1[C@H](Oc2ccc3c(c2)CCC2C3CC[C@]3(C)C(=O)CCC23)O[C@H](CO)[C@@H](O)[C@@H]1O` (some centres not stated)?
VDR inhibitor: -12%

Results for C[C@H]1COC(=O)[C@H](Cc2ccc(F)cc2)CC/C=C/C[C@@H](CC(=O)N[C@@H](CO)Cc2ccccc2)C(=O)N1 ?
VDR inhibitor: -4%

How did Cc1ccc(NC(=O)CN(C)CC(=O)Nc2sc3c(c2C(N)=O)CCC3)cc1 do in these assays?
VDR inhibitor: 3%

What do the screens show for `CC(C)Cc1ccc(CN2CCC(n3nccc3NC(=O)C3CCCC3)CC2)cc1`?
VDR inhibitor: -13%

How did Cc1c(C(=O)Nc2ccc(F)c(F)c2)oc2ccc(S(=O)(=O)N3CCC4(CC3)OCCO4)cc12 do in these assays?
VDR inhibitor: -4%

How did CCOc1ccc(CNC(=O)CCC(=O)N2CCSc3ccccc32)cc1 do in these assays?
VDR inhibitor: 7%&7%

Results for COc1cc2c(cc1OC)/C(=C/C(=O)c1ccc(C)cc1)NCC2 ?
VDR inhibitor: 1%

How did Cc1cccc(N2CCN(C(=O)C3CCCN(S(=O)(=O)c4ccc5c(c4)oc(=O)n5C)C3)CC2)c1C (configuration not stated) do in these assays?
VDR inhibitor: -13%

What do the screens show for `COc1ccccc1CNC(=O)C1CCN(C(=O)[C@@H]2Cc3ccccc3CN2)CC1`?
VDR inhibitor: 81%[activator]

How did COc1cccc(N=Cc2c[nH][nH]c2=O)c1 do in these assays?
VDR inhibitor: inconclusive

What do the screens show for `COc1ccc(NC(=O)CCN2CCCCCC2)cc1`?
VDR inhibitor: -10%

How did O=S(=O)(NCCCCCCc1ccccc1)c1cccc2c(Cl)cccc12 do in these assays?
VDR inhibitor: -7%

What do the screens show for `COc1ccc(Cn2nnnc2C(c2ccccc2Cl)N2CCC(C(N)=O)CC2)cc1` (configuration not stated)?
VDR inhibitor: 9%

How did COc1cccc(CN(C)C(=O)C2CC(=O)N(c3ccc4c(c3)OCCO4)C2)c1 (configuration not stated) do in these assays?
VDR inhibitor: -1%

How did CCN1C(=O)c2ccccc2S(=O)c2ccc(C(=O)N3CCN(C(=O)c4ccco4)CC3)cc21 (configuration not stated) do in these assays?
VDR inhibitor: -5%

How did COc1ccc(CCNC(=O)[C@H](C)NC(=O)[C@@H]2CSC3c4ccccc4C(=O)N32)cc1 (some centres not stated) do in these assays?
VDR inhibitor: inconclusive

What do the screens show for `Cc1cccc(-c2[nH]c(C(C)(C)C)nc2-c2ccc3nccnc3c2)n1`?
VDR inhibitor: -6%

How did Cc1cc2c(SCC(=O)Nc3cccc(O)c3)ncnc2s1 do in these assays?
VDR inhibitor: -7%

What do the screens show for `COc1ccc(C(=O)C2CCCN(Cc3ccc4nonc4c3)C2)c(OC)c1` (configuration not stated)?
VDR inhibitor: 3%

How did O=C(OC(C(=O)NCc1cccs1)c1ccccc1F)c1ccco1 (configuration not stated) do in these assays?
VDR inhibitor: 16%

What do the screens show for `CCOc1ccc(C(=O)OC2CCN(C)CC2)cc1`?
VDR inhibitor: -13%

How did Cc1c(C)c2ccc(OCC(=O)N3CCC[C@@H]3C(=O)O)c(C)c2oc1=O do in these assays?
VDR inhibitor: -2%

How did Cc1cc(=O)[nH]c2ccc(S(=O)(=O)Nc3ccc(O)cc3)cc12 do in these assays?
VDR inhibitor: 4%

How did COc1cc(OC)c(OC)cc1/C=N/Nc1ncnc2c1[nH]c1ccccc12 do in these assays?
VDR inhibitor: -18%

Results for Cc1cc(C(=O)CSc2nnc(-c3ccco3)o2)c(C)n1-c1ccc2c(c1)OCCO2 ?
VDR inhibitor: 1%

How did COc1cccc(OCc2cc(C(=O)N3CCN(c4ccccc4OC)CC3)no2)c1 do in these assays?
VDR inhibitor: 5%

How did CC(OC(=O)c1ccc(NS(=O)(=O)c2ccc3[nH]c(=O)[nH]c3c2)cc1)C(=O)Nc1ccc(Cl)cc1 (configuration not stated) do in these assays?
VDR inhibitor: -3%

How did Cc1ccc(C(=O)N/C(=C/c2cccs2)C(=O)NCc2ccco2)cc1 do in these assays?
VDR inhibitor: -12%

How did Cc1cccc2cc(CN(Cc3ccco3)C(=O)c3ccco3)c(=O)[nH]c12 do in these assays?
VDR inhibitor: 4%

Results for CCCCNc1cc(=O)oc2ccccc12 ?
VDR inhibitor: 16%

How did Cc1csc(=O)n1CC(=O)OCc1nnc(-c2ccc(Cl)cc2)o1 do in these assays?
VDR inhibitor: 3%

How did CCOC(=O)N1CCC(NC(=O)c2oc3c(F)cccc3c2C)CC1 do in these assays?
VDR inhibitor: 6%

What do the screens show for `O=C(NCc1ccco1)C12CN(Cc3ccccc3)CC1C(c1ccc([N+](=O)[O-])cc1)=NO2` (configuration not stated)?
VDR inhibitor: -20%

What do the screens show for `Cc1ccc(CSCC(=O)N(C)CC(=O)Nc2ccccc2C(F)(F)F)cc1`?
VDR inhibitor: inconclusive

What do the screens show for `CCc1ccccc1NC(=S)N(Cc1cccc(C)c1)c1cccnc1`?
VDR inhibitor: 2%

Results for COCCN1C(=O)c2oc3ccccc3c(=O)c2C1c1ccc(OC)c(OC)c1 (configuration not stated) ?
VDR inhibitor: 1%

Results for COCCNc1ncnc2ccc(-c3ccoc3)cc12 ?
VDR inhibitor: 40µM*

Results for O=C(COC(=O)/C=C/c1ccc(Br)o1)NCCCN1CCCC1=O ?
VDR inhibitor: -11%

How did COc1cc2ncnc(NCc3cccc(F)c3F)c2cc1OC do in these assays?
VDR inhibitor: -18%

What do the screens show for `OC(COc1ccc2ccccc2c1)CN1CCCC1` (configuration not stated)?
VDR inhibitor: 1%

How did O=C(CN(CCO)c1ccccc1)Nc1cccc(S(=O)(=O)N2CCCC2)c1 do in these assays?
VDR inhibitor: 10%

How did COc1cc(C(=O)Nc2cccnc2)cc(OC)c1OC do in these assays?
VDR inhibitor: -11%

What do the screens show for `Cc1cc(/C=C(\C#N)C(=O)N2CCCCC2)cc(C)c1O`?
VDR inhibitor: 2%

Results for COc1cc(/C=C2/C(=N)N3N=C(C(C)C)SC3=NC2=O)ccc1OS(=O)(=O)c1ccccc1 ?
VDR inhibitor: 56µM*

Results for O=C(CSCc1c(F)cccc1Cl)Nc1cccnc1 ?
VDR inhibitor: -3%

How did COc1ccc(Cl)cc1NC(=O)CNc1ccccc1CN(C)C1CCCCC1 do in these assays?
VDR inhibitor: -1%

Results for CC/C=C\C/C=C\C/C=C\C/C=C\C/C=C\CCCC(=O)O ?
VDR inhibitor: 40µM*!

How did C=CCN(C(=O)c1cccc(N2C(=O)C3CC=CC(C)C3C2=O)c1)c1ccccc1 (configuration not stated) do in these assays?
VDR inhibitor: -2%

Results for O=C1C(Nc2ccccc2)=C(N2CCCCC2)C(=O)c2ccccc21 ?
VDR inhibitor: inconclusive

How did CCc1ccc(NC(=O)c2cnn(-c3c(C)cccc3C)c2C2CCNCC2)cc1 do in these assays?
VDR inhibitor: 22%

Arranged by length of the SMILES (largest number first): part of the list above.
Results for COc1cc(/C=C2/C(=N)N3N=C(C(C)C)SC3=NC2=O)ccc1OS(=O)(=O)c1ccccc1 ?
VDR inhibitor: 56µM*

How did CCc1ccc(NC(=O)c2cnn(-c3c(C)cccc3C)c2C2CCNCC2)cc1 do in these assays?
VDR inhibitor: 22%

How did COc1ccc(Cl)cc1NC(=O)CNc1ccccc1CN(C)C1CCCCC1 do in these assays?
VDR inhibitor: -1%

Results for O=C1C(Nc2ccccc2)=C(N2CCCCC2)C(=O)c2ccccc21 ?
VDR inhibitor: inconclusive

What do the screens show for `Cc1cc(/C=C(\C#N)C(=O)N2CCCCC2)cc(C)c1O`?
VDR inhibitor: 2%

How did COc1cc(C(=O)Nc2cccnc2)cc(OC)c1OC do in these assays?
VDR inhibitor: -11%

Results for O=C(CSCc1c(F)cccc1Cl)Nc1cccnc1 ?
VDR inhibitor: -3%

2 entries drawn at random from the list so far, as already listed:
How did O=S(=O)(NCCCCCCc1ccccc1)c1cccc2c(Cl)cccc12 do in these assays?
VDR inhibitor: -7%

How did COc1cccc(N2CCN(C(=O)C3CCN(S(=O)(=O)c4cccc5nonc45)CC3)CC2)c1 do in these assays?
VDR inhibitor: 16%

Next section.
Results for Cc1cc(C)cc(-c2nnc(SCC(=O)NC3CC3)o2)c1 ?
VDR inhibitor: -1%

How did O=C(CN1C(=O)CC(c2ccccc2)Sc2ccccc21)Nc1cccc(Cl)c1 (configuration not stated) do in these assays?
VDR inhibitor: -3%

What do the screens show for `CN=c1scc(-c2ccccc2F)n1/N=C/c1ccc[nH]1`?
VDR inhibitor: 30%

What do the screens show for `CC(C)(C)c1ccc(C(=O)NCc2ccco2)cc1`?
VDR inhibitor: -11%

What do the screens show for `CCCCNC(=O)[C@@H]1CC=C[C@@H]2CCN(Cc3ccc(Cl)c(Cl)c3)C(=O)[C@@H]21`?
VDR inhibitor: 0%

What do the screens show for `CCCCNC(=O)CN1C(=O)NC2NC(=O)NC21` (configuration not stated)?
VDR inhibitor: -3%

How did Cn1ncc(C#N)c1NC(=O)C1CC(c2ccc(Cl)c(Cl)c2)=NO1 (configuration not stated) do in these assays?
VDR inhibitor: 21%

What do the screens show for `COc1cc(NC(=O)CN2C(=O)C(C)N(c3ccc(C)cc3)C2=O)cc(OC)c1` (configuration not stated)?
VDR inhibitor: -2%

How did Cc1ccc(N(Cc2cc(=O)[nH]c3ccccc23)C(=O)CCl)cc1 do in these assays?
VDR inhibitor: -25%

How did C[C@@H]1C[C@](C)(C(=O)c2ccc3ccccc3c2)C=C1c1ccc2ccccc2c1 do in these assays?
VDR inhibitor: 3%

What do the screens show for `O=C(c1ccc(Br)o1)N1CCN(c2ccccc2F)CC1`?
VDR inhibitor: -25%

What do the screens show for `O=C1COc2ccc(-c3n[nH]c(=O)c4ccccc34)cc2N1`?
VDR inhibitor: -14%

Results for O=C(CO/N=C/c1c(Cl)cccc1Cl)NNC(=O)c1ccc(Cl)cc1 ?
VDR inhibitor: 27%

What do the screens show for `Cc1cc(NC(=O)C(C)(C)C)no1`?
VDR inhibitor: -6%

Results for C=CCn1c(=O)c2ccccc2n2c(SCC(C)=O)nnc12 ?
VDR inhibitor: 5%
